# Screens from PubChem BioAssay.
# HPGD block: HPGD (human) dehydrogenase inhibition; P15428; purified HPGD, NADH fluorescence kinetic, PGE2 substrate; Potency, µM, for the others: top-dose activity change, negative = inhibition, actives largely listed as inhibitors; 150,000 tested, 4.3% active; active = well fitted inhibition curve with a large enough effect (not every such curve was filed as active); inconclusive = small, poorly fitted or top-dose-only effect, or another doubt; inactive = no such curve, though single readings can be large or run the other way;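 further: top concentration of the series not given in the record; plate controls included wells without enzyme; inactives centre near -10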
# Target sequence (P15428 whole entry, looked up): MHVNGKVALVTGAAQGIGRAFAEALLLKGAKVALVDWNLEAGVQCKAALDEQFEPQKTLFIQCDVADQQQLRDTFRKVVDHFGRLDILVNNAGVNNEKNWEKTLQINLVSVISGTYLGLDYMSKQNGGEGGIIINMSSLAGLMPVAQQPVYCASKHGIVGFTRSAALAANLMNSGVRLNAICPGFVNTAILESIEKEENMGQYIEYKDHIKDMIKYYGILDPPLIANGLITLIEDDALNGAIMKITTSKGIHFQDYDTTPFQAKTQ
#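 20 nM HPGD preincubated 15 min at room temperature with compound in 50 mM Tris-HCl pH 8, 0.01% Tween 20. Started with 1 mM NAD+ and 30 uM prostaglandin E2; NADH fluorescence (360/450 nm) read 5 times over 30-s intervals, last minus first.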
# Active calls of the source: *; ? = inconclusive. On the % scale 0 is the no-effect control and ±100 the full control effect; potency means the concentration at half of the fitted maximal effect. The list is partial, so the mix of outcomes need not match the whole.
SMILES,HPGD block
CCc1cc(C(c2ccncc2)N2CCN(C)CC2)c(NC(=O)c2ccccc2)s1 (stereo not drawn),-5%
CCNc1c2c3c(cccc3n(C)c1=O)C(=O)c1ccccc1-2,-26%
COc1ccccc1CNC(=O)CSc1nc(N)c(C#N)c(-c2cccs2)c1C#N,?
CCOCC(=O)Nc1nc2ccc(S(C)(=O)=O)cc2s1,-26%
CCCc1cc(N2CCCC(C(=O)NCc3ccc4c(c3)OCO4)C2)n2ncnc2n1 (stereo not drawn),-13%
Cc1cc(C(C)(C)C)ccc1OCCN(C)C,-5%
Cn1nc(-c2ccc(C(=O)Nc3cccc(Cl)c3)cc2)c2ccccc2c1=O,-8%
Cc1cccc(CC(=O)OCn2nnc3ccccc3c2=O)c1,-7%
CCCCNS(=O)(=O)c1ccc2nc(SCC(=O)c3ccc(C#N)cc3)[nH]c2c1,-29%
COc1cc(/C=C/C(=O)O)cc(S(=O)(=O)NCCCO)c1OC,?
CCOC(=O)c1ccc(NC(=O)CS(=O)(=O)c2cn(CC)c3ccccc23)cc1,-16%
COC(=O)c1sc(NC(=O)c2cccc([N+](=O)[O-])c2)c(C(N)=O)c1C,28µM*
COC(=O)c1cn(C(=O)c2ccc(C)c(C)c2)c2ccccc12,-17%
NC(=O)[C@H](Cc1cc2ccccc2s1)NC(=O)[C@@H]1CC2(CC(c3cccc(NC(=O)[C@@H]4CCC(=O)N4)c3)=NO2)CN1C(=O)/C=C/c1c(F)cccc1Cl (stereo partly drawn),-13%
COc1ccc2nc(NC(=O)CN(C)S(=O)(=O)c3cccs3)sc2c1,-17%
CCN(CC)S(=O)(=O)c1cccc(NC(=O)C(=O)c2c(-c3ccccc3)cc3ccccn23)c1,-5%
CCOCCCNS(=O)(=O)c1ccc(NC(=O)N2c3ccccc3Sc3ccccc32)cc1,-9%
c1csc(C(c2nnnn2C2CCCCC2)N2CCN(c3nc4ccccc4s3)CC2)c1 (stereo not drawn),-4%
Cc1ccc(C)c(SCc2noc(C(=O)NCC3CCCO3)c2C(=O)O)c1 (stereo not drawn),-19%
COc1ccc(CNC(=O)C(c2ccco2)N(Cc2ccccc2)C(=O)Cc2cccs2)cc1 (stereo not drawn),-12%
O=C(CSc1nnc(-c2c[nH]c3ccccc23)o1)N(Cc1ccccc1)c1ccc(F)cc1,-22%
COC(=O)C1=C(C)N(C)C(C)=C(C(=O)OC)C1c1ccc(C(=O)OC)cc1,-4%
N#Cc1c(SCc2ccccc2)sc(C(=O)c2ccccc2)c1N,-11%
O=C1CC(c2ccco2)CC(O)=C1C=Nc1cc(Cl)ccc1O (stereo not drawn),8.9µM*

# Brought forward from above: 2 compounds; new compounds follow.
SMILES,HPGD block
N#Cc1c(SCc2ccccc2)sc(C(=O)c2ccccc2)c1N,-11%
O=C1CC(c2ccco2)CC(O)=C1C=Nc1cc(Cl)ccc1O (stereo not drawn),8.9µM*
O=C(NC1CC1)c1ccc(CS(=O)(=O)c2c(Cl)cccc2Cl)o1,-2%
C/C=C(\C)CN1CCc2cc(OC)c(OC)cc2C1,-22%
N#CCCN(CCC#N)c1nnc(-c2ccccc2)s1,-10%
CCOc1ccc2c(c1)-c1c(ssc1=S)C(C)(C)N2C,-16%
CCOc1cc(CNc2ncc(-c3ccc(OC)cc3)n2C)ccc1O,-7%
COc1ccc(C(=O)OCC(=O)NCc2ccc3c(c2)OCO3)cc1[N+](=O)[O-],-2%
Cc1ccc(SCCC(=O)N(C)C)cc1,-14%
CCCCOC(=O)C1=C(C)Nc2ncnn2C1c1cccc(OC)c1 (stereo not drawn),-26%
O=C(Nc1ccc(-n2cnnn2)cc1)C1CCC1,-13%
Cc1cc(NC(c2ccc(Cl)cc2)c2ccc3cccnc3c2O)no1 (stereo not drawn),-14%
O=C1N=C(O)CN1/N=C/c1ccc(-c2ccc([N+](=O)[O-])cc2)o1,-24%
c1ccc(-n2c(-c3ccncc3)nnc2-c2ccco2)cc1,-16%
COc1ccc(/C(O)=C2/C(=O)C(=O)N(CCN3CCOCC3)C2c2cccnc2)cc1OC (stereo not drawn),-20%
CNC(=O)c1ccccc1-c1ccccc1,-7%
c1ccc(Oc2cccc(OCCCCSc3ncccn3)c2)cc1,-11%
COc1cc(C(C)=O)ccc1OCC(=O)c1cc(C)n(C2CC2)c1C,-19%
CCn1c(SCC(=O)Nc2ccc(C(=O)OC)cc2)nc2cccnc21,3.5µM*
Cc1nc2ccccc2c(=O)n1NC(=O)Cc1ccc(Br)cc1,-11%
COCc1nc2ccccc2n1CCCOc1ccccc1,-11%
C1=CCC(/C=N/n2cnnc2)CC1 (stereo not drawn),1%
COCC(=O)Nc1nnc(COc2ccc(Cl)cc2)s1,-18%
C=CCn1c(SCC(=O)Nc2ccc(N(C)C)cc2)nnc1-c1cccc(C)c1,0%
Cc1ccc(NC(=O)Nc2nnc(Cc3ccc([N+](=O)[O-])cc3)s2)cc1C,-10%
CCOc1ccc(N2C(=O)CC(SCCN)C2=O)cc1 (stereo not drawn),-6%
CCCc1nc2sc3c(c2c(=O)n1NC(=O)CCCl)CCCC3,-11%
CCOC(=O)c1cnn(-c2nc(-c3cccc(F)c3)cs2)c1C(F)(F)F,?
CCn1c(=O)c(-c2ccccc2)c(O)c2ccccc21,-6%
COc1cc(NS(=O)(=O)c2ccc(N/C=C(\C=O)c3nc4cc(Cl)ccc4o3)cc2)nc(OC)n1,14µM*
O=C(NC1CCCC1)C(c1ccccc1)N(Cc1ccco1)C(=O)Cc1cccs1 (stereo not drawn),2%
COc1ccccc1Nc1ncnc2ccccc12,-15%
CCn1c(SCC(=O)Nc2ncc(C(F)(F)F)cc2Cl)nnc1-c1ccccc1,-7%
O=C(N/N=C/c1cccc(OCC(=O)N2CCCC2)c1)C(=O)Nc1ccccc1F,-14%
Cc1ccc(C(NC(=O)/C=C\c2ccc3c(c2)OCO3)C(=O)Nc2ccc3c(c2)OCO3)cc1 (stereo not drawn),?
Cc1ccc2c(c1)c(C)c(C)n2CC(O)CN1CCCCC1C (stereo not drawn),-11%
CCOc1cc(NC(=O)c2cnccn2)c(OCC)cc1NC(=O)c1ccc(OC)cc1,-11%
CC1=C(C(=O)NCc2ccccc2)C(c2ccccc2OCC(N)=O)NC(=O)N1 (stereo not drawn),-7%
Cc1oc2cc(O)ccc2c(=O)c1Oc1ccc2ccccc2c1,?
O=C(c1cccc(S(=O)(=O)N2CCOCC2)c1)N(CCO)Cc1ccccc1,-6%
CC(=NCc1ccco1)c1c(C(F)(F)F)[nH]n(-c2nc3ccccc3s2)c1=O,-10%
Cn1c(SC2C(=O)CC(C)(C)CC2=O)nnc1-c1ccco1,-2%
CC(C)C[C@H](NC(=O)[C@H](O)[C@H](N)Cc1ccccc1)C(=O)O,-4%
COc1ccc(S(=O)(=O)NCCSCc2ccco2)cc1,-16%
COC(=O)c1cc(OC)c(OC)cc1NC(=O)c1ccc(C)o1,-19%
COc1ccc(NC(=O)Cn2ncc(Cl)c(Cl)c2=O)cc1S(=O)(=O)N1CCOCC1,-4%
COc1cccc(CN(CC(=O)NC2CCCC2)C(=O)Cn2nnc(-c3cccs3)n2)c1,-9%
Cc1ccc(-n2nnnc2SCc2nnc(-c3ccccc3Br)o2)cc1,-28%
Cc1nnc(SCc2ccc(C(=O)O)cc2)s1,-13%
O=C(CCN1C(=O)c2ccccc2C1=O)Nc1nc2ccccc2s1,-16%
Cc1c(Cl)c([N+](=O)[O-])nn1CC(=O)NC1CCCCC1,0%
CCC(=O)N1CCc2cc(S(=O)(=O)NC(C(=O)NC(C)c3ccccc3)C(C)C)ccc21 (stereo not drawn),-4%
Cn1ccnc1Sc1nc2c(c(=O)n(C)c(=O)n2C)n1C,-7%
Cc1cccc(Oc2nc(-c3cccc([N+](=O)[O-])c3)nc3ccccc23)c1C,-5%
COc1cc(C(c2sc3nc(C)nn3c2O)N2CC(C)CC(C)C2)cc(OC)c1OC (stereo not drawn),-15%
CC1CCC(C(C)C)C(OC(=O)CSc2n[nH]c(=O)[nH]c2=O)C1 (stereo not drawn),-11%
CCCN1C/C(=C/c2ccc3c(c2)OCO3)C(=O)/C(=C/c2ccc3c(c2)OCO3)C1,-10%
CCOC(=O)c1cc(-c2ccccc2)sc1N,11µM*
Cc1cc2cc(CN3C(=O)c4ccccc4C3=O)ccc2n1C,-2%
Cc1cc(/C=C2/NC(=O)NC2=O)c(C)n1-c1sc2c(c1C#N)CCCC2,18µM*
C=CCc1cc(OC)ccc1OCCON1C(=O)CCC1=O,-10%
Cc1ccc(OCC(=O)N2CCN(C3=NS(=O)(=O)c4ccccc43)CC2)cc1,-8%

# Following part.
SMILES,HPGD block
CCCNS(=O)(=O)c1ccc(OCC(=O)NCCC2=CCCCC2)cc1,1%
COCCNS(=O)(=O)c1cc(C)c(C)cc1C,-1%
COc1ccc(NC(=O)CCCn2c(=O)oc3ccccc32)cc1Cl,-1%
CCN=C1SC(CC(=O)NC2CCCCC2)C(=O)N1CC (stereo not drawn),-4%
COc1ccc(NC(=O)CC(c2ccc(F)cc2)c2ccc(OC)cc2)cc1 (stereo not drawn),3%
Cc1cccc(N2CCN(C(=O)CCCSc3nc4ccccc4[nH]3)CC2)c1C,-15%
CC(=O)C(C(C)=O)C1(O)C(=O)c2ccccc2C1=O,7%
O=c1oc(-c2cccnc2)nc2ccccc12,-5%
CCC/C=N/NC(=O)c1cc(-c2ccccc2)nc2ccccc12,-9%
CCCCCCCCn1cnc2c(N)c(C)c(C)cc21,-12%
COc1cc(C2CC(=O)Oc3ccc(O)cc32)cc(OC)c1OC (stereo not drawn),?
CCn1cc(/C=N\NC(=O)C2(C)CC2(Cl)Cl)c(C)n1 (stereo not drawn),-9%
Cc1ccc(CNC(=O)CCS(=O)(=O)c2cc(Br)cc3c2N(C(=O)C2CC2)CC3)o1,?
Cc1nc(-c2ccccc2)cs1,3%
O=C(CSCc1ccccc1)N1CCc2ccccc21,-18%
CCOc1ccccc1-n1c(SCC(=O)NC(C)(C)C)nnc1-c1ccoc1C,-23%
Cc1nn(Cc2ccccc2)c(Cl)c1C(=O)OCc1nnc(-c2ccccc2)o1,13µM*
Cc1ccc(C2C3=C(CC(C)(C)CC3=O)NC3=C2C(=O)CC(C)(C)C3)o1,-10%
O=c1[nH]n(-c2ncnc3c2cnn3-c2ccccc2)c(=O)c2ccccc12,-3%
O=S(=O)(c1ccc(Br)c2nsnc12)N1CCOCC1,-7%
Cc1ccc(-c2nc(N)sc2-c2ccccc2)cc1C,-26%
CC(C)(C)OC(=O)N1CCC[C@H]1c1nnc(SCc2ccccc2Cl)o1,-11%
O=C1OC(Nc2ncccn2)c2ccccc21 (stereo not drawn),-15%
COc1ccc(-c2csc(Cc3nnc4n3CCCCC4)n2)cc1OC,-14%
O=C(NCCCN1CCN(c2ccccc2F)CC1)Nc1ccc(F)cc1,3%
CCOC(=O)CC(=O)CSc1ccc2nnc(-c3ccccc3)n2n1,?
COc1ccc(-c2cnc3nc[nH]c(=O)c3n2)cc1,?
O=C(NC1CCCCC1)n1c(=O)oc2ccccc21,-14%
Cc1ccc(NN=C2C(=O)OC(C)(C)OC2=O)c(C)c1,-10%
CCOC(=O)c1cnc2c(Cl)cc(Cl)cc2c1NCCOCCO,-17%
CCOC(=O)C1=C(C)N(C)C(=S)NC1c1ccc(Cl)cc1Cl (stereo not drawn),-6%
CCc1cc(SC#N)cc(C)c1NC(=O)CCl,16µM*
N#CCSc1nnc2c(Cl)cc(Cl)cn12,-17%
Clc1ccc(-c2noc(CSc3nnc(Cc4cccs4)n3-c3ccccc3)n2)cc1,-1%
COc1ccc(-c2nc(C#N)c(NCCCn3ccnc3)o2)cc1OC,?
CSc1nc(N)nc(SCC(=O)C23CC4CC(CC(C4)C2)C3)c1C#N,-18%
Cc1c(N=Cc2ccc(Cl)o2)c(=O)n(-c2ccccc2)n1C,0%
Nc1nc(N)[n+]([O-])c(N)c1NCO,-9%
CN(C)S(=O)(=O)c1cccc(C(=O)OCC(=O)NCc2ccccc2)c1,-12%
COc1cccc(NC(=O)c2ccc(-n3cccn3)nc2)c1,?
CCCCn1c(SCc2cccc([N+](=O)[O-])c2)nc2ccsc2c1=O,-7%

# Grouped by structure, the compounds so far with a thiophene ring, fused or not.
SMILES,HPGD block
CCc1cc(C(c2ccncc2)N2CCN(C)CC2)c(NC(=O)c2ccccc2)s1 (stereo not drawn),-5%
COc1ccccc1CNC(=O)CSc1nc(N)c(C#N)c(-c2cccs2)c1C#N,?
COC(=O)c1sc(NC(=O)c2cccc([N+](=O)[O-])c2)c(C(N)=O)c1C,28µM*
NC(=O)[C@H](Cc1cc2ccccc2s1)NC(=O)[C@@H]1CC2(CC(c3cccc(NC(=O)[C@@H]4CCC(=O)N4)c3)=NO2)CN1C(=O)/C=C/c1c(F)cccc1Cl (stereo partly drawn),-13%
COc1ccc2nc(NC(=O)CN(C)S(=O)(=O)c3cccs3)sc2c1,-17%
c1csc(C(c2nnnn2C2CCCCC2)N2CCN(c3nc4ccccc4s3)CC2)c1 (stereo not drawn),-4%
COc1ccc(CNC(=O)C(c2ccco2)N(Cc2ccccc2)C(=O)Cc2cccs2)cc1 (stereo not drawn),-12%
N#Cc1c(SCc2ccccc2)sc(C(=O)c2ccccc2)c1N,-11%
CCCc1nc2sc3c(c2c(=O)n1NC(=O)CCCl)CCCC3,-11%
O=C(NC1CCCC1)C(c1ccccc1)N(Cc1ccco1)C(=O)Cc1cccs1 (stereo not drawn),2%
COc1cccc(CN(CC(=O)NC2CCCC2)C(=O)Cn2nnc(-c3cccs3)n2)c1,-9%
CCOC(=O)c1cc(-c2ccccc2)sc1N,11µM*
Cc1cc(/C=C2/NC(=O)NC2=O)c(C)n1-c1sc2c(c1C#N)CCCC2,18µM*
Clc1ccc(-c2noc(CSc3nnc(Cc4cccs4)n3-c3ccccc3)n2)cc1,-1%
CCCCn1c(SCc2cccc([N+](=O)[O-])c2)nc2ccsc2c1=O,-7%
